High-throughput results as filed in PubChem.
Menin-MLL FL inh: displaces fluorescein MLL peptide from human menin; Fluorescence polarization, fluorescein-MLL peptide displacement from menin; FP activity change, % at 61.4 µM; 290,000 tested, under 10 active; AID 1766; inconclusive = falling polarisation curve, or a change in total fluorescence; inactive = total fluorescence flat and polarisation flat or rising; no compound was filed as active; the % refers to the polarisation; negative = inhibition;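 also: % of control where 0% means no effect; inhibitors lower the polarisation; unlabelled MLL peptide was the positive control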
ClpP mod: qHTS Assay for Activators of ClpP; Potency, µM (titrated, usually from 57.5 µM), inactives show at the top dose activity change, negative = active; purified B. subtilis ClpP, FRET peptide cleavage, 20 min; actives 1.9% (n = 340,000); ATP-dependent Clp protease proteolytic subunit (Bacillus subtilis (strain 168)), P80244; active = well fitted falling curve with a large enough effect; inconclusive = small, poorly fitted or top-dose-only effect; inactive = no such curve, though single readings can be large or run the other way; also: potency is read from the fitted curve at half-maximal effect; the source files actives as falling curves though it sought activators and does not explain the sign; nearly all actives have a fitted effect of over 65% in size; many hits overshoot -100%
Target sequence (P80244 whole entry, looked up): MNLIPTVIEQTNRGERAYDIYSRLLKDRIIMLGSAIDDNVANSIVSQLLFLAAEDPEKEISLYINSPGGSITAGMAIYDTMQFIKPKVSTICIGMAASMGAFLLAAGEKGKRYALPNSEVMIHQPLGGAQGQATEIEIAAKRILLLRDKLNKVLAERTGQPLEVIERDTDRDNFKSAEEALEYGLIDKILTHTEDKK
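ClpP 10 microg/mL final, pH 8 Tris/KCl buffer with BSA, glycerol, Tween-20; compound pinned in; FRET-FV substrate; RT 20 min; Ex320/Em430; ΔFRET vs ADEP 5.8 microM, DMSO, no enzyme.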
TRPML1 inh: blocks the human TRPML1 channel | AID 624415 | actives 0.02% (n = 390,000) | activity change, negative = inhibition, % (concentration not given with the values) | TRPML1-inducible cells, Ca2+ dye fluorescence, FDSS; stronger effect = lower value; inhibition of EC80 agonist-evoked calcium signal | Q9GZU1; in the data active means activity change below about -50%; inconclusive means about -30% to -50%; inactive means above about -30%;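 also: stimulus is agonist 54-4 at its EC80 concentration; % is scaled to controls: 0 for no effect and ±100 for the full control effect; compound concentration not given in the record; the text of the record puts the active cut at -80%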
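TRPML1-DL cells, Tet-induced overnight (~16 h, 37 °C) at 1,500 cells/well, were loaded with Ca8 no-wash dye plus quencher for 45-90 min at room temperature. Compounds were pinned during FDSS kinetic reading; agonist 54-4 at EC80 (4 uM final) then added.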
gsp ag: gsp mutant agonism; Potency, µM (highest dose often 76.9 µM), without a hit: top-dose activation (cAMP increase), actives largely listed as activators; AID 624287; gsp mutant cells, cAMP HTRF, 30 min; control for the full effect not named in the record; actives 0.13% (n = 340,000); active = well fitted activation curve with a large enough effect; inconclusive = small, poorly fitted or top-dose-only effect, or another doubt; inactive = no such curve, though single readings can be large or run the other way; cell line not stated here;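 also: phosphodiesterase inhibitor Ro 20-1724 added with compounds to block cAMP breakdown; potency is read from the fitted curve at half-maximal effect; nearly all actives have a fitted effect of over 60% in size; about a fifth of the inactives were tested at one dose only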
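Cells stably selected in G418 were plated at 2000/well, grown 16-24 hr, then given compounds in DMSO with the PDE inhibitor […] (300 uM solution added) for 30 min at 37C; cAMP was read by HTRF.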
Sfp PPTase inh: inhibitors of Bacillus subtilis Sfp phosphopantetheinyl transferase; Q9F4F7; Biochemical Sfp PPTase activity, qHTS; Potency, µM, for inactives: max response, negative = inhibition, most hits filed as inhibitors; actives 3.5% (n = 310,000); active = well fitted inhibition curve with a large enough effect; inconclusive = small, poorly fitted or top-dose-only effect, or another doubt; inactive = no such curve, though single readings can be large or run the other way;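 also: the enzyme is Sfp with the accession as filed and its product quenches rhodamine fluorescence; potency is read from the fitted curve at half-maximal effect; 0% = enzyme reaction without inhibitor and -100% = no enzyme wells; top concentration of the series not given in the record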
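Reaction rates are the 30-min fluorescence difference (ex 525, em 598 nm) in wells containing 15 nM Sfp, 5 uM rhodamine-CoA and 12.5 uM BHQ-2-YbbR at pH 7.6 with 10 mM MgCl2.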
TRPV1 PAM: potentiators of human vanilloid receptor 1 (TRPV1); TRPV1-expressing cells, Fluo-8 calcium influx, capsaicin EC20 potentiation; host cell line not named in the record; control for the full effect not named in the record; potentiation, % at 8.33 µM; Q8NER1; AID 540277; actives 0.02% (n = 320,000); active means potentiation above 80%; inconclusive means 30% to 80%; inactive means below 30%; also: 0% is about no effect
Target sequence (Q8NER1 whole entry, looked up): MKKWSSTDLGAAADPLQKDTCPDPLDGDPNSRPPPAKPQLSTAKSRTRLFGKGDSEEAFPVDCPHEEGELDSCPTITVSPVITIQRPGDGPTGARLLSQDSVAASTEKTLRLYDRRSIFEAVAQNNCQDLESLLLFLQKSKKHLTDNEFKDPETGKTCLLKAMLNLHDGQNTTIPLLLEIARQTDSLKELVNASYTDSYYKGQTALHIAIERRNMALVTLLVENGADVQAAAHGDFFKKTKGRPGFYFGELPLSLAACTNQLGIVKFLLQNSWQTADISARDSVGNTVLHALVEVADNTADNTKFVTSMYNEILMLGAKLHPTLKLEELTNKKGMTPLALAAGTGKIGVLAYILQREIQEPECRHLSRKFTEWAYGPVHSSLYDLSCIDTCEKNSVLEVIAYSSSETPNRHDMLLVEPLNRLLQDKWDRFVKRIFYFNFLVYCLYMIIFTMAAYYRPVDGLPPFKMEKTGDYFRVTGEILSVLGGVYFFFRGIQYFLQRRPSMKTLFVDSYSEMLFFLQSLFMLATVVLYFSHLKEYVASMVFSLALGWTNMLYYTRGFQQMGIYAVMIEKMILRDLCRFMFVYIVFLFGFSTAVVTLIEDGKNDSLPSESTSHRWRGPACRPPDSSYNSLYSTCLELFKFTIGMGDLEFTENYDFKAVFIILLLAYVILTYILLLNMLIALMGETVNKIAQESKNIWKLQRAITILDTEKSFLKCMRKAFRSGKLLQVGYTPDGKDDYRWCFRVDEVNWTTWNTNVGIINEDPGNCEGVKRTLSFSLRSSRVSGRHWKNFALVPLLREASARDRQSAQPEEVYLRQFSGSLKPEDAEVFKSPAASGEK
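TRPV1-expressing cells were cultured overnight at 35.5C and loaded with Fluo-8 calcium dye for 40 to 90 min at room temperature. After a 10 s baseline, compound was added and calcium influx was read kinetically for 3 min (ex 480/em 520 nm).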
gsp antagonist: antagonizes gsp, the McCune-Albright syndrome mutation | Potency, µM (top dose mostly 76.9 µM), for inactives: top-dose activity change, negative = inhibition, most hits filed as inhibitors | gsp-mutant cells, cAMP HTRF, 30 min; control for the full effect not named in the record | actives 0.4% (n = 340,000) | AID 624288; active = falling curve of any shape with a large fitted effect; inconclusive = falling curve, mostly with a smaller effect; inactive = flat or rising curve; cell line not stated here;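 also: intracellular cAMP measured with PDE inhibitor Ro 20-1724 present during compound exposure; potency is read from the fitted curve at half-maximal effect; % is scaled to controls: 0 for no effect and ±100 for the full control effect; nearly all actives have a fitted effect of over 65% in size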
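Cells, 2000/well, grown 16–24 h in DMEM 10% FBS with 0.5 mg/ml G418, then compounds plus […] (300 uM addition stock), 30 min at 37C. cAMP read by HTRF (cAMP-d2 and anti-cAMP antibody-K in lysis buffer) after 30 min RT.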
An asterisk follows results filed as active; [ ] = another dose, or the depositor's remark.

Cc1[nH]ccc(=O)c1OCc1c(Cl)cccc1Cl was read as Menin-MLL FL inh 1.8, ClpP mod 2.0%, TRPML1 inh 19, gsp ag inconclusive, Sfp PPTase inh 6%, TRPV1 PAM -3 and gsp antagonist 10%.
COc1ccc2c(c1)C1C=CCC1C(c1cc3c(cc1Br)OCO3)N2 (stereo not given) was read as Menin-MLL FL inh 1.6, ClpP mod -0.5%, TRPML1 inh 60, gsp ag 4%, Sfp PPTase inh -21% and gsp antagonist -7%.
Screening CC(C)C(NC(=O)OCc1ccccc1)C(=O)NC1CCCCC1 (stereo not given) returned Menin-MLL FL inh -2.9, ClpP mod 1.4%, TRPML1 inh 20, gsp ag 3%, Sfp PPTase inh 9%, TRPV1 PAM -3 and gsp antagonist 6%.
`CCOC(=O)c1c(C)c(C(=O)NCCN2CCOCC2)c(C)n1CC` gave Menin-MLL FL inh -3.1, ClpP mod -1.1%, TRPML1 inh -26, gsp ag -52%[inhibitor], Sfp PPTase inh -21%, TRPV1 PAM -2 and gsp antagonist 7%.
`Cc1cc(-c2ccccc2)nc(N/N=C/c2ccco2)n1` gave Menin-MLL FL inh 5.8, ClpP mod -0.5%, TRPML1 inh -9, gsp ag inconclusive, Sfp PPTase inh 3%, TRPV1 PAM -18 and gsp antagonist -4%.
For CC(C)(C)c1ccc(C(=O)N/C(=C/c2cccs2)C(=O)NCc2ccco2)cc1 the results were Menin-MLL FL inh -1.5, ClpP mod 1.1%, TRPML1 inh 21, gsp ag inconclusive, Sfp PPTase inh -16%, TRPV1 PAM 29 and gsp antagonist inconclusive.
Screening C=CCN1C=CC(=CC=C(C#N)C#N)C=C1 returned Menin-MLL FL inh inconclusive, ClpP mod -16%, TRPML1 inh -5, gsp ag 0%[15.4 µM], Sfp PPTase inh 3%, TRPV1 PAM 0 and gsp antagonist inconclusive.
`O=C(Cc1cccc(C(F)(F)F)c1)N1CCCC1` gave Menin-MLL FL inh -7.7, TRPML1 inh 15, gsp ag -15%[15.4 µM], Sfp PPTase inh 7%, TRPV1 PAM -9 and gsp antagonist 5%.
For N#Cc1c(Nc2ccccc2)[n+]([O-])c2ccc(Cl)cc2[n+]1[O-] the results were ClpP mod 2.2%, TRPML1 inh 5, gsp ag -1% and gsp antagonist -5%.
`CCc1ccc(C2CC(c3ccc(C)cc3)Nc3nc(N)nn32)cc1` (stereo not given) gave Menin-MLL FL inh 1.1, ClpP mod -8.3%, TRPML1 inh 8, gsp ag 2%, Sfp PPTase inh 22%, TRPV1 PAM -2 and gsp antagonist 7%.
For Cc1ccc(-c2cc3nc(-c4ccccc4)cc(N)n3n2)cc1 the results were Menin-MLL FL inh -0.8, ClpP mod 25µM*, TRPML1 inh -9, gsp ag 11%, Sfp PPTase inh 19%, TRPV1 PAM -5 and gsp antagonist 3%.
CCOC(=O)N1CCN(Cc2cc(=O)oc3cc4c(cc23)CCC4)CC1 was read as Menin-MLL FL inh 0.9, ClpP mod -11%, TRPML1 inh 6, gsp ag inconclusive, Sfp PPTase inh inconclusive, TRPV1 PAM -3 and gsp antagonist 0%.
CC(C)C(=O)Nc1cccc(N2CCN(CCCN3C(=O)C4CCCCN4C3=O)CC2)c1 (stereo not given) was read as ClpP mod -3.2%, TRPML1 inh 9, gsp ag -13% and gsp antagonist -6%.
Screening NS(=O)(=O)c1ccc(NC(=O)COC(=O)CCCN2C(=O)c3cccc4cccc(c34)C2=O)cc1 returned ClpP mod 1.7%, TRPML1 inh -2, gsp ag 6%[15.4 µM] and gsp antagonist -10%.
For O=C(Nc1ccc2c(c1)OCO2)Nc1ccc2c(c1)OCO2 the results were Menin-MLL FL inh 0.2, ClpP mod -1.7%, TRPML1 inh -7, gsp ag inconclusive, Sfp PPTase inh 0%, TRPV1 PAM 4 and gsp antagonist 21%.
COCCN(CC(=O)NC1CCCCC1)C(=O)CCCC(=O)Nc1ccccn1 was read as Menin-MLL FL inh -2.6, ClpP mod 0.7%, TRPML1 inh 8, gsp ag 17%, Sfp PPTase inh 16%, TRPV1 PAM 5 and gsp antagonist 8%.
CC(NC(=O)C(=O)N1CCOCC1)C(c1cccs1)N1CCN(c2ccccc2)CC1 (stereo not given) was read as ClpP mod -2.1%, TRPML1 inh 8, gsp ag 3%, Sfp PPTase inh 0%, TRPV1 PAM -9 and gsp antagonist 6%.
Screening O=C(c1ccc(Br)cc1)N1CCN(Cc2ccccc2)CC1 returned Menin-MLL FL inh -1.6, ClpP mod 0.2%, TRPML1 inh -8, gsp ag 27%[15.4 µM], Sfp PPTase inh 8%, TRPV1 PAM -17 and gsp antagonist 3%.
`COc1cccc(CNC(=O)c2cc(S(=O)(=O)N3CCCC3)cn2C)c1` gave Menin-MLL FL inh 0.9, ClpP mod 1.6%, TRPML1 inh 15, gsp ag inconclusive, Sfp PPTase inh 9%, TRPV1 PAM -11 and gsp antagonist 2%.
For CC(=O)Nc1ccccc1-c1nc2ccccc2nc1OCC(=O)c1ccc(Cl)cc1 the results were Menin-MLL FL inh 0.5, ClpP mod -1.6%, TRPML1 inh -5, gsp ag -11%, Sfp PPTase inh 5%, TRPV1 PAM -5 and gsp antagonist 12%.
For CCc1ccc(N2CCN(C(=O)c3ccc4c(c3)OCO4)CC2)cc1 the results were Menin-MLL FL inh -2.7, ClpP mod 1.0%, TRPML1 inh -2, gsp ag 4%[15.4 µM], Sfp PPTase inh -2%, TRPV1 PAM -3 and gsp antagonist 8%.
Screening COc1cc(C)c(CN2CCN(C(=O)CCC(=O)c3ccc(C)s3)CC2)cc1OC returned ClpP mod -1.4%, TRPML1 inh 23 and gsp ag -203%[inhibitor].
For COc1cc(C2c3c(oc4ccc(Cl)cc4c3=O)C(=O)N2Cc2ccco2)cc(OC)c1OC (stereo not given) the results were Menin-MLL FL inh 0.6, Sfp PPTase inh 3% and TRPV1 PAM -1.
For COc1ccc(OC)c(-c2cc(C(=O)N3CCN(c4ncccn4)CC3)c3ccccc3n2)c1 the results were Menin-MLL FL inh 3.0, ClpP mod -3.3%, TRPML1 inh -3, gsp ag 2%, Sfp PPTase inh 9%, TRPV1 PAM 2 and gsp antagonist -15%.
For CC(=O)Nc1ccc(OCC(=O)NC(C)C(C)C)cc1 (stereo not given) the results were Menin-MLL FL inh 0.0, ClpP mod 1.1%, TRPML1 inh -14, gsp ag -7%, Sfp PPTase inh 15%, TRPV1 PAM 7 and gsp antagonist 13%.
CN(C(=O)c1ccc(NC(=O)Cc2cccc(NC(=O)C3CCCN(C(=O)CCc4ccccc4)C3)c2)cc1)C1CCCC1 (stereo not given) was read as ClpP mod -0.7%, TRPML1 inh 15, gsp ag 17%, TRPV1 PAM 3 and gsp antagonist -18%.
O=C(O)C1CCN(S(=O)(=O)c2cccs2)CC1 was read as Menin-MLL FL inh -5.2, TRPML1 inh 9, gsp ag 1%[15.4 µM], Sfp PPTase inh 19%, TRPV1 PAM -1 and gsp antagonist -1%.
O=C(c1ccc(Br)s1)N1CCN(S(=O)(=O)c2ccccc2)CC1 was read as Menin-MLL FL inh 0.3, ClpP mod -4.9%, TRPML1 inh -1, gsp ag -35%[inhibitor], Sfp PPTase inh 2%, TRPV1 PAM -23 and gsp antagonist -14%.
`COc1ccc(CN(C(C)=O)c2ccccc2C(=O)O)cc1` gave Menin-MLL FL inh 7.0, ClpP mod -0.2%, TRPML1 inh 70, gsp ag -7%, Sfp PPTase inh 7%, TRPV1 PAM -1 and gsp antagonist 3%.
`COc1ccc(NC(=O)CN2CCN(S(=O)(=O)c3ccc(Cl)cc3)CC2)cc1` gave Menin-MLL FL inh 4.5, ClpP mod -1.3%, TRPML1 inh 6, gsp ag -69%[inhibitor], Sfp PPTase inh 10%, TRPV1 PAM 13 and gsp antagonist -5%.
N#CCCN(Cc1cccnc1)C(=O)c1sc2cc(F)ccc2c1Cl was read as Menin-MLL FL inh -1.1, ClpP mod 0.1%, TRPML1 inh 18, gsp ag inconclusive, Sfp PPTase inh -14%, TRPV1 PAM -4 and gsp antagonist -10%.
For CCOc1ccc(S(=O)(=O)N2CCCC(C(=O)NCc3ccco3)C2)cc1 (stereo not given) the results were ClpP mod 0.5%, TRPML1 inh 7, gsp ag -39%[inhibitor], Sfp PPTase inh 17%, TRPV1 PAM -2 and gsp antagonist 4%.
O=C(CSC1=NCCS1)Nc1ccc(S(=O)(=O)N2CCCCCC2)cc1 was read as Menin-MLL FL inh 0.1, ClpP mod 0.9%, TRPML1 inh 5, gsp ag -20%, Sfp PPTase inh 4%, TRPV1 PAM -17 and gsp antagonist -18%.
For O=C(CCc1nnc(C2CCCCC2)o1)NCc1ccc(F)c(F)c1 the results were Menin-MLL FL inh 1.2, ClpP mod -3.1%, TRPML1 inh -5, gsp ag -2%, Sfp PPTase inh -15%, TRPV1 PAM -10 and gsp antagonist 5%.
For COc1ccccc1CNC(=O)CNCC1CCCO1 (stereo not given) the results were Menin-MLL FL inh 0.8, ClpP mod 0.5%, TRPML1 inh 3, gsp ag 5%, Sfp PPTase inh inconclusive, TRPV1 PAM -13 and gsp antagonist 6%.
For O=C(O)c1ccc(Cl)c(S(=O)(=O)N(Cc2ccccc2)c2ccccc2)c1 the results were Menin-MLL FL inh 6.1, TRPML1 inh 21, gsp ag 1%[15.4 µM], Sfp PPTase inh 16%, TRPV1 PAM 28 and gsp antagonist -12%.
For N#Cc1ccc(C(=O)N2CCC3CC2c2cc(N4CCCCC4)ccc23)cc1 (stereo not given) the results were ClpP mod -1.1%, TRPML1 inh 4 and gsp ag 19%.
For COc1ccc(NC(=O)c2cccc(NC(=O)c3ccco3)c2)c(OC)c1 the results were Menin-MLL FL inh -0.8, ClpP mod 2.0%, TRPML1 inh 0, gsp ag -37%[inhibitor], Sfp PPTase inh 3%, TRPV1 PAM -14 and gsp antagonist -4%.
